Compound activity: PubChem, Broad Institute
Vaccinia inh: Vaccinia orthopox stage-specific inhibition | Vaccinia-infected cells, mCherry/Venus stage reporter fluorescence; active compounds read low; some inactives read as strong as hits | actives 0.01% (n = 89,000) | activity change (mCherry), % (concentration not given with the values);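 active = mCherry past -33% and 40 or more points under the early reporter, replicates agreeing; inconclusive = past -33% without that gap or agreement; tested in A549 cells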;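 note: scaled between vehicle wells and reference inhibitor wells; 23 nL library stock went into each well; one replicate is shown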
Vaccinia inh Venus: further read-out of Vaccinia inh, marked with its call; activity change (Venus), %; measured here: Venus reporter, other viral stage;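 negative = less Venus signal; first of two replicates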
An asterisk follows results filed as active; u = inconclusive; x = no result given; & = joins results of further samples.

Start of the listing, in advance, 4 compounds:
SMILES	Vaccinia inh	Vaccinia inh Venus
C[C@@H]1CCCCO[C@@H](CN(C)S(=O)(=O)c2ccccc2)[C@@H](C)CN([C@@H](C)CO)C(=O)c2cc(NC(=O)CCCN(C)C)ccc2O1	17	13
C[C@@H]1CCCCO[C@H](CN(C)S(=O)(=O)c2cn(C)cn2)[C@@H](C)CN([C@H](C)CO)C(=O)c2cc(NS(=O)(=O)c3ccc(F)cc3)ccc2O1	15	13
CO[C@@H]1CC[C@H]2CCOc3ccc(C#N)cc3C(=O)N(C)[C@H](C)C(=O)N(C)C[C@H]1O2	16	3
C[C@@H]1CN([C@@H](C)CO)C(=O)c2cc(C#CC3CCCCC3)cnc2O[C@@H]1CN(C)C(=O)C1CCCCC1	u	x

This part in full, from the first entry:
SMILES	Vaccinia inh	Vaccinia inh Venus
C[C@@H]1CCCCO[C@@H](CN(C)S(=O)(=O)c2ccccc2)[C@@H](C)CN([C@@H](C)CO)C(=O)c2cc(NC(=O)CCCN(C)C)ccc2O1	17	13
C[C@@H]1CCCCO[C@H](CN(C)S(=O)(=O)c2cn(C)cn2)[C@@H](C)CN([C@H](C)CO)C(=O)c2cc(NS(=O)(=O)c3ccc(F)cc3)ccc2O1	15	13
CO[C@@H]1CC[C@H]2CCOc3ccc(C#N)cc3C(=O)N(C)[C@H](C)C(=O)N(C)C[C@H]1O2	16	3
C[C@@H]1CN([C@@H](C)CO)C(=O)c2cc(C#CC3CCCCC3)cnc2O[C@@H]1CN(C)C(=O)C1CCCCC1	u	x
C[C@H]1CN([C@@H](C)CO)C(=O)Cc2cc(NS(=O)(=O)c3ccc(F)cc3)ccc2O[C@@H]1CN(C)S(=O)(=O)c1cn(C)cn1	-1	-6
C[C@@H]1CN([C@H](C)CO)C(=O)c2cc(C3=CCCC3)cnc2O[C@H]1CN(C)C(=O)Nc1ccc(C(F)(F)F)cc1	-18	-12
CCCC(=O)Nc1ccc2c(c1)C(=O)N(C)C[C@H](OC)[C@@H](C)CN(C(=O)C1CCCC1)[C@@H](C)CO2	14	17
C[C@H](CO)N1C[C@H](C)[C@H](CN(C)C(=O)Nc2ccc(C(F)(F)F)cc2)Oc2ccc(N(C)C)cc2C1=O	2	5
COc1ccc2c3c([nH]c2c1)[C@H](CO)N(C(=O)c1cccnc1)CC31CCN(C(=O)c2cccnc2)CC1	16	8
COc1ccc2c3c([nH]c2c1)[C@@H](CO)N(S(C)(=O)=O)CC31CCN(CC2CC2)CC1	-9	-11
Cc1ccccc1-c1ccc2c(c1)O[C@H](CN(C)Cc1ccc(C(=O)O)cc1)[C@H](C)CN([C@H](C)CO)S2(=O)=O	18	1
CCS(=O)(=O)N[C@@H]1CC[C@@H](CC(=O)NC2Cc3ccccc3C2)O[C@@H]1CO	-15	-12
C[C@H](CO)N1C[C@H](C)[C@@H](CN(C)S(=O)(=O)c2ccccc2)Oc2c(NC(=O)C3CC3)cccc2C1=O	11	13
CCCC#Cc1cnc2c(c1)C(=O)N([C@@H](C)CO)C[C@H](C)[C@@H](CN(C)C(=O)c1ccccc1)O2	-13	-3
CNC(=O)C[C@@H]1CC[C@@H]2[C@H](COC[C@@H](O)CN2C(=O)Nc2ccc3c(c2)OCO3)O1	15	1
Cc1ccc(S(=O)(=O)N(C)C[C@H]2OCCCC[C@@H](C)Oc3ccc(N(C)C)cc3C(=O)N([C@@H](C)CO)C[C@H]2C)cc1	-29	-18
COCC(=O)N1C[C@H](C)[C@H](OC)CN(C)C(=O)c2ccc(NC(=O)C3CCC3)cc2OC[C@@H]1C	9	6
COc1ccc(CN(C)C[C@H]2Oc3ccc(NS(C)(=O)=O)cc3C(=O)N([C@H](C)CO)C[C@@H]2C)cc1	23	4
CCC(=O)N1[C@@H]2c3ccc(-c4ccc(F)cc4)c(=O)n3C[C@H]1[C@H](CO)[C@H]2C(=O)OC	2	-5
COCC(=O)N1CCC2(CC1)CN(C(=O)Nc1ccccc1F)[C@H](CO)c1[nH]c3cc(OC)ccc3c12	27	17
C[C@H](CO)N1C[C@H](C)[C@@H](CN(C)C(=O)Nc2ccc3c(c2)OCO3)Oc2ccc(NC(=O)c3ccncc3)cc2C1=O	52	23
C[C@@H]1CN([C@@H](C)CO)S(=O)(=O)c2ccc(C#Cc3ccccc3)cc2O[C@H]1CN(C)S(C)(=O)=O	-11	-10
C(=C\c1ccc(C2[C@H]3CNC[C@@H]2N3Cc2ccccn2)cc1)/c1ccccc1 (stereo partly drawn)	16	11
C[C@@H]1CN([C@@H](C)CO)C(=O)c2cc(NC(=O)C3CC3)ccc2O[C@H]1CN(C)S(=O)(=O)c1ccc(Cl)cc1	4	3
O=C(C[C@H]1CC[C@H]2[C@@H](COC[C@H](O)CN2C(=O)Nc2ccc(Cl)c(Cl)c2)O1)NCc1ccc(F)cc1	u	x
(further entries)
SMILES	Vaccinia inh	Vaccinia inh Venus
Cc1noc(C)c1NC(=O)Nc1ccc2c(c1)C(=O)N([C@@H](C)CO)C[C@H](C)[C@@H](CN(C)Cc1ccc(C(=O)Nc3ccccc3N)cc1)O2	-8	-9
CCCN1[C@H](C(=O)NCCCN(C)C)[C@@H](CO)[C@@H]2Cn3c(ccc(C4=CCCCC4)c3=O)[C@@H]21	-2	-8
CC(=O)N1CCCCN2[C@H](C1)[C@H](c1ccc(-c3ccc(C)cc3)cc1)[C@@H]2CO	u	x
CC(C)NC(=O)Nc1ccc2c(c1)C(=O)N([C@H](C)CO)C[C@@H](C)[C@@H](CN(C)Cc1ccc(C(F)(F)F)cc1)O2	-7	-4
CO[C@@H]1CN(C)C(=O)c2cc(NC(=O)c3ccc4c(c3)OCO4)ccc2OC[C@H](C)NC[C@@H]1C	17	10
CCCC#Cc1cnc2c(c1)C(=O)N([C@H](C)CO)C[C@H](C)[C@H](CN(C)C(=O)C1CCC1)O2	-5	-7
C[C@H](CO)N1C[C@H](C)[C@@H](CN(C)S(=O)(=O)c2cccc(F)c2)Oc2ncc(-c3cccc(C(=O)N(C)C)c3)cc2C1=O	-3	6
Cc1ccc(S(=O)(=O)N(C)C[C@@H]2OCCCC[C@@H](C)Oc3ccc(NC(=O)NC4CCCCC4)cc3C(=O)N([C@H](C)CO)C[C@@H]2C)cc1	0	-2
C[C@H](CO)N1C[C@H](C)[C@H](CN(C)S(=O)(=O)c2ccc(Cl)cc2)Oc2ccc(NC(=O)Nc3ccc(F)cc3)cc2CC1=O	u	x
C[C@@H](NC(=O)C[C@H]1C[C@@H]2c3cc(NC(=O)CN(C)C)ccc3O[C@@H]2[C@H](CO)O1)c1ccccc1	14	13
COc1ccc(CN(C)C[C@@H]2Oc3ccc(NC(=O)Nc4ccccc4)cc3C(=O)N([C@H](C)CO)C[C@@H]2C)cc1	-9	1
Cc1ccc(S(=O)(=O)N[C@@H]2CC[C@@H](CCNC(=O)c3ccccc3F)O[C@H]2CO)cc1	-12	-5
O=C(C[C@@H]1CC[C@@H]2[C@H](COC[C@H](O)CN2C(=O)c2ccccc2F)O1)NCc1ccc(Cl)cc1	1	1
C[C@H]1CN([C@@H](C)CO)C(=O)c2cc(-c3cccc(C#N)c3)cnc2O[C@H]1CN(C)C(=O)c1ccccn1	-1&16	6&9
C[C@@H]1CCCCO[C@H](CN(C)C(=O)Nc2ccc(C(F)(F)F)cc2)[C@H](C)CN([C@H](C)CO)C(=O)c2cc(NC(=O)c3ccncc3)ccc2O1	u	x
C[C@@H]1CN([C@H](C)CO)C(=O)c2cccc(NS(=O)(=O)c3cn(C)cn3)c2O[C@@H]1CN(C)C(=O)Nc1ccc(C(F)(F)F)cc1	4	1
O=C(c1cccc(F)c1)N1CC(=O)N2[C@H](C1)[C@H](c1ccc(C3=CCCC3)cc1)[C@@H]2CO	16	14
C[C@@H]1CCCCO[C@H](CN(C)C(=O)Cc2ccccc2)[C@@H](C)CN([C@H](C)CO)C(=O)c2cc(NS(=O)(=O)c3cn(C)cn3)ccc2O1	18	6
CN1[C@H](C(=O)Nc2ccccc2)[C@@H](CO)[C@@H]2Cn3c(ccc(-c4ccccc4)c3=O)[C@@H]21	17	12
CNC[C@H]1Oc2cc(C#CC3(O)CCCC3)ccc2S(=O)(=O)N([C@@H](C)CO)C[C@H]1C	-2	3
CCCN1[C@@H]2Cn3c(cccc3=O)[C@H]1[C@@H](C(=O)N[C@@H](C)c1ccccc1)[C@@H]2CO	9	-2
COc1cccc(NC(=O)N(C)C[C@H]2OCc3cn(nn3)CCCC(=O)N([C@@H](C)CO)C[C@@H]2C)c1	-3&14	2&3
C[C@H](CO)N1C[C@H](C)[C@H](CN(C)S(=O)(=O)c2ccccc2)Oc2ccc(NC(=O)Cn3cnnn3)cc2CC1=O	-2	5
C[C@H](CO)N1C[C@H](C)[C@@H](CN(C)C(=O)C2CC2)Oc2ncc(C#CC3CCCC3)cc2C1=O	9	12
O=S(=O)(NC[C@@H]1N[C@@H](CO)[C@H]1c1ccccc1)c1ccccc1	-6	0

Part of the list above, in markdown:
| smiles | Vaccinia inh | Vaccinia inh Venus |
| --- | --- | --- |
| Cc1ccc(S(=O)(=O)N[C@@H]2CC[C@@H](CCNC(=O)c3ccccc3F)O[C@H]2CO)cc1 | -12 | -5 |
| O=C(C[C@@H]1CC[C@@H]2[C@H](COC[C@H](O)CN2C(=O)c2ccccc2F)O1)NCc1ccc(Cl)cc1 | 1 | 1 |
| C[C@H]1CN([C@@H](C)CO)C(=O)c2cc(-c3cccc(C#N)c3)cnc2O[C@H]1CN(C)C(=O)c1ccccn1 | -1&16 | 6&9 |

Continuation.
SMILES	Vaccinia inh	Vaccinia inh Venus
CCCNC(=O)N(C)C[C@H]1Oc2cc(-c3ccccc3F)ccc2S(=O)(=O)N([C@@H](C)CO)C[C@H]1C	-1	-12
CCCN1[C@@H]2c3ccc(C4=CCCC4)c(=O)n3C[C@@H]2[C@@H](CO)[C@@H]1C(=O)NCC	6	7
COc1ccc(S(=O)(=O)N(C)C[C@@H]2OCCCC[C@H](C)Oc3ccc(NC(=O)c4ccncc4)cc3C(=O)N([C@@H](C)CO)C[C@H]2C)cc1	14	7
O=C(NC[C@H]1[C@@H](c2ccccc2)[C@H](CO)N1Cc1cccnc1)c1ccccn1	-2	9
CC(C)(C)[C@H]1C=C(C(=O)N2CCN(Cc3ccc4c(c3)OCO4)CC2)O[C@@H](OCCCCO)C1	20	8
CCC(=O)N(C)C[C@@H]1Oc2cc(C#CCC(C)C)ccc2S(=O)(=O)N([C@H](C)CO)C[C@H]1C	-16	-23
COc1ccc(CN(C)C[C@@H]2Oc3ccc(NC(=O)Nc4c(C)noc4C)cc3CC(=O)N([C@H](C)CO)C[C@H]2C)cc1	4	3
C[C@H]1CN([C@@H](C)CO)C(=O)c2cc(NC(=O)CCC(F)(F)F)ccc2O[C@@H]1CN(C)CC1CC1	-8	-9
CN1c2ccc(C#Cc3cccnc3)cc2[C@H]2[C@H](CCN2C(=O)c2cccnc2)[C@@H]1CO	21	6
CN(C)CC(=O)N[C@@H]1CC[C@@H](CCNC(=O)C2CCCC2)O[C@H]1CO	-12	-7
C[C@H]1CN([C@@H](C)CO)C(=O)c2ccccc2-c2ccccc2CO[C@H]1CN(C)S(=O)(=O)c1ccccc1	8	5
COc1ccc(NC(=O)N(C)C[C@H]2Oc3ccc(NC(=O)Nc4c(C)noc4C)cc3CC(=O)N([C@H](C)CO)C[C@H]2C)cc1	4	8
Cc1ccc(S(=O)(=O)N(C)C[C@H]2OCCCC[C@@H](C)Oc3ccc(NS(=O)(=O)c4cccs4)cc3C(=O)N([C@@H](C)CO)C[C@H]2C)cc1	u	x
C[C@H]1CN([C@@H](C)CO)C(=O)CCCn2nncc2CO[C@@H]1CN(C)C(=O)Cc1ccccc1	12	7
CO[C@H]1CN(C)C(=O)c2ccc(NC(=O)Nc3cccc(F)c3)cc2OC[C@@H](C)N(C(=O)Nc2c(C)noc2C)C[C@H]1C	11	3
Cc1noc(C)c1S(=O)(=O)Nc1ccc2c(c1)C(=O)N([C@H](C)CO)C[C@@H](C)[C@H](CN(C)S(=O)(=O)c1ccc(F)cc1)O2	12	5
CCC(=O)N(C)C[C@H]1Oc2ncc(C#C[C@H](C)O)cc2C(=O)N([C@@H](C)CO)C[C@@H]1C	21	14
C[C@@H]1CN([C@@H](C)CO)C(=O)c2cc(C#CC3CCCCC3)cnc2O[C@@H]1CN(C)Cc1cncnc1	-3	-6
COc1ccc2c3c(n(C)c2c1)[C@@H](CO)N(Cc1cccnc1)CC31CCN(C(=O)NC(C)C)CC1	2	-1
CO[C@H]1CN(C)C(=O)c2ccc(NC(=O)C3CC3)cc2OC[C@@H](C)N(CC2CC2)C[C@H]1C	14	7
C[C@@H]1CN([C@H](C)CO)S(=O)(=O)c2ccc(-c3ccc(F)cc3)cc2O[C@@H]1CN(C)S(C)(=O)=O	-27	-24
CN(C)C(=O)c1cccc(-c2ccc([C@@H]3[C@H]4CN(C(=O)C5CCCC5)CCCCN4[C@H]3CO)cc2)c1	1	-6
C[C@@H]1CN([C@@H](C)CO)C(=O)c2cc(NC(=O)Nc3cccc4ccccc34)ccc2O[C@@H]1CN(C)C(=O)Nc1ccc(C(F)(F)F)cc1	-4	-5
O=C(NC1CCCC1)N1CCCCN2[C@H](C1)[C@@H](c1ccc(/C=C/c3ccccc3)cc1)[C@@H]2CO	u	x
O=C(c1cnccn1)N1CC(=O)N2[C@H](CO)[C@@H](c3ccc(C#CC4CCCCC4)cc3)[C@@H]2C1	u	x
COc1ccc(S(=O)(=O)Nc2ccc3c(c2)C(=O)N([C@@H](C)CO)C[C@H](C)[C@H](CN(C)C(=O)c2ccccc2)OCCCC[C@@H](C)O3)cc1	-9	-5
C[C@@H]1CN([C@H](C)CO)C(=O)c2cc(-c3ccccc3F)cnc2O[C@H]1CN(C)Cc1ccc(F)cc1	u	x
O=C(c1cccnc1)N1C[C@@H]2N[C@H](C1)C2c1ccc(-c2ccccc2)cc1 (stereo partly drawn)	-1	-14
C[C@H](CO)N1C[C@H](C)[C@H](CN(C)C(=O)Nc2ccc3c(c2)OCO3)Oc2ccc(NC(=O)CCCCCC(=O)Nc3ccccc3N)cc2C1=O	0	3

This is a subset; the hit share may differ from the screen's.
